High-throughput results deposited in PubChem by Fisher Drug Discovery Resource Center.
NPYLR7 ag: activates Aedes aegypti NPYLR7 receptor. HEK293T NPYLR7/Galpha15, GCaMP6s calcium fluorescence. actives 0.15% (n = 270,000). activation, % at 10 µM. AID 1259423; in the data active = activation above about 40%;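 note: 0% = vehicle and 100% = reference agonist at the receptor; some compounds past the cut are filed as inactive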
NPYLR7 ag max-min: second read-out of NPYLR7 ag, no call of its own (marks repeat the call); activation, %; measured here: Max-Min RFU normalised activation; some inactives read as strong as hits;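 span of the calcium signal over five minutes; 0% = vehicle and 100% = native peptide agonist; compound fluorescence can raise it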
* = called active by the depositor; & = joins results of further samples. Only part of the results is shown; the hit share may differ from the screen's.

`O=C(COc1ccccc1)NNC(=O)c1ccc(Cl)cc1` gave NPYLR7 ag 15 and NPYLR7 ag max-min 6.
COCCNC(=O)[C@@H](C)C1CC[C@@]2(C)Cc3sc(NC(=O)CN(C)C)nc3[C@@H](C)[C@@H]2[C@H]1O (some centres undefined) was read as NPYLR7 ag -7 and NPYLR7 ag max-min -14.
`CSc1ncc(CNCc2ccccc2)c(N2CCC(N3CCCCC3)CC2)n1` gave NPYLR7 ag 2 and NPYLR7 ag max-min 4.
For CC1(C)c2sc(=O)[nH]c2SC2C(=O)N(c3ccc(Br)cc3)C(=O)C21 (centres undefined) the results were NPYLR7 ag 5 and NPYLR7 ag max-min 5.
Cn1nc(C(=O)Nc2cc(Cl)ccc2-n2cncn2)ccc1=O was read as NPYLR7 ag 6 and NPYLR7 ag max-min 2.
For CC(C)NC(=O)CSc1nc2c(-c3ccccc3)c[nH]c2c(=O)n1C the results were NPYLR7 ag -3 and NPYLR7 ag max-min -5.
`O=C(O)COc1ccc(/C=C2\SC(=Nc3ccccc3)N(c3ccccc3)C2=O)cc1` gave NPYLR7 ag 0 and NPYLR7 ag max-min -4.
`O=C(C1CCCN(C2CCN(Cc3ccc4c(c3)OCO4)CC2)C1)N1CCCC1` (centres undefined) gave NPYLR7 ag -3 and NPYLR7 ag max-min -3.
Screening O=C(Nc1cccc(C2SCC(=O)N2c2ccc(C(F)(F)F)cc2)c1)c1ccco1 (centres undefined) returned NPYLR7 ag 4 and NPYLR7 ag max-min 10.
`O=C(CSc1nc2ccccc2[nH]1)N/N=C\c1ccccn1` gave NPYLR7 ag 2 and NPYLR7 ag max-min 7.
`O=C(C1CCC1)N1CCOC(Cc2cccc(F)c2)C1` (centres undefined) gave NPYLR7 ag 8 and NPYLR7 ag max-min 6.
For Cc1ccc(S(=O)(=O)NC(=O)C2(C)CCN2C(=O)C2CC2)cc1 (centres undefined) the results were NPYLR7 ag 2 and NPYLR7 ag max-min 1.
`O=C(Nc1ccc(O)c(-c2nc3ccccc3o2)c1)c1cc(Cl)ccc1Cl` gave NPYLR7 ag 9 and NPYLR7 ag max-min 12.
For Brc1ccc(NCc2cccs2)cc1 the results were NPYLR7 ag 1 and NPYLR7 ag max-min 1.
For NC(=O)Cc1csc(N)n1 the results were NPYLR7 ag 9 and NPYLR7 ag max-min 8.
For COc1ccc(C(=O)N2CCSC23CCN(C(=O)Nc2ccccc2OC)CC3)cc1 the results were NPYLR7 ag -6 and NPYLR7 ag max-min 0.
For Nc1cc(-c2ccc3c(c2)CCCC3)nn1-c1ccccc1 the results were NPYLR7 ag -1 and NPYLR7 ag max-min -4.
Screening CC(C)CCN(Cc1cccs1)CC(O)COCc1ccccc1 (centres undefined) returned NPYLR7 ag 2 and NPYLR7 ag max-min -2.
Screening Cc1cc(C(C)(C)C)nc(C(C)(C)C)c1 returned NPYLR7 ag -7 and NPYLR7 ag max-min -9.
Screening COc1ccc2c(-c3cccnc3)cc(=S)[nH]c2c1 returned NPYLR7 ag 2 and NPYLR7 ag max-min 8.
`COC(=O)CCCc1c(-c2ccccn2)[nH]c2ccccc12` gave NPYLR7 ag 9 and NPYLR7 ag max-min 4.
Screening COc1cccc(C(=O)N(CC(=O)N2CCc3sccc3C2COc2ccccc2C)CC2CCCO2)c1 (centres undefined) returned NPYLR7 ag -7 and NPYLR7 ag max-min -1.
`O=C1NC(=S)NC(=O)C1=CN1CCCc2ccccc21` gave NPYLR7 ag 5 and NPYLR7 ag max-min 3.
Screening O=C(NC1CCS(=O)(=O)CC1)c1ccc2ccc(Cl)cc2n1 returned NPYLR7 ag 3 and NPYLR7 ag max-min 3.
Cc1cc2cc(CNC(=O)NC3CCCCC3)ccc2n1C was read as NPYLR7 ag 8 and NPYLR7 ag max-min 11.
Cc1ccc(N2C(=O)C3C4C=CC(C4)C3C2=O)cc1Cl (centres undefined) was read as NPYLR7 ag 3 and NPYLR7 ag max-min 2.
CN(C/C=C/c1ccco1)Cc1n[nH]c2c1CCCCC2 was read as NPYLR7 ag -2 and NPYLR7 ag max-min -6.
CN1CCC(Cc2noc([C@]34CC[C@](C)([C@@H](O)C3)C4(C)C)n2)CC1 was read as NPYLR7 ag 3 and NPYLR7 ag max-min 2.
O=C(Nc1cccc(Cl)c1F)C1CCCN1S(=O)(=O)c1ccccc1C(F)(F)F (centres undefined) was read as NPYLR7 ag 0 and NPYLR7 ag max-min 0.
`CC(OCC1CCCCO1)C(=O)Nc1nc2cc(F)ccc2n1C` (centres undefined) gave NPYLR7 ag 7 and NPYLR7 ag max-min 5.
Screening CCCCc1ccc(S(=O)(=O)N2CCC(Cc3nncn3C)CC2)cc1 returned NPYLR7 ag 33 and NPYLR7 ag max-min 18.
For Cc1nc(CNC(=O)/C=C/c2ccc(N3CCCC3=O)cc2)n[nH]1 the results were NPYLR7 ag 5 and NPYLR7 ag max-min 4.
`COCCCn1c(CN2CCN(CC(C)C)C(=O)[C@@H]2C)cnc1S(C)(=O)=O` gave NPYLR7 ag 8 and NPYLR7 ag max-min 2.
For c1c(CN2CCOC3(CCCC3)C2)nn2c1CNCCC2 the results were NPYLR7 ag 3 and NPYLR7 ag max-min 2.
Screening Cc1cc(C(=O)N2CCC(C(=O)Nc3ccc(Oc4ccccc4F)cc3)CC2)c(C)o1 returned NPYLR7 ag 2 and NPYLR7 ag max-min 0.
For CCOC(=O)C1(Cc2ccccc2)CCN(Cc2cccc3ncccc23)CC1 the results were NPYLR7 ag -12 and NPYLR7 ag max-min -17.
Screening CNc1cnc(-c2cccc(C(=O)NCCN(C)C)c2)cn1 returned NPYLR7 ag 2 and NPYLR7 ag max-min 0.
Screening COc1cccc(CNC(=O)CSc2nc(=O)[nH]c3c2CCCC3)c1 returned NPYLR7 ag 1 and NPYLR7 ag max-min -1.
`COc1ccc(Nc2nc(Cl)nc(Nc3ccc(OC)cc3)n2)cc1` gave NPYLR7 ag -4 and NPYLR7 ag max-min -6.
`COc1cc(N2CCC(N)CC2)ccc1Nc1ncc(Cl)c(-c2c[nH]c3ccccc23)n1` gave NPYLR7 ag 1 and NPYLR7 ag max-min -8.
For CC1Cc2cc(C(=O)N(C)Cc3ccccc3F)ccc2N1S(C)(=O)=O (centres undefined) the results were NPYLR7 ag -3 and NPYLR7 ag max-min -4.
O=C(NNc1ccc(Cl)cc1)c1cccn2c(CCN3CCCCC3)nnc12 was read as NPYLR7 ag 10 and NPYLR7 ag max-min 6.
Screening O=C(CSc1cn(CC(=O)N2CCCCCC2)c2ccccc12)NCc1ccccc1 returned NPYLR7 ag -7 and NPYLR7 ag max-min -4.
For Cc1ccc2[nH]c(CNC(C)c3cnn(-c4cccc(F)c4)c3C)c(C)c2c1 (centres undefined) the results were NPYLR7 ag 9 and NPYLR7 ag max-min 8.
Screening CS(=O)(=O)N1CCSC1c1ccc2c3c(cccc13)CCC2 (centres undefined) returned NPYLR7 ag 5 and NPYLR7 ag max-min 4.
COc1ccc(-c2nc(N(CCC(=O)NCc3ccco3)CCc3ccccc3)c3ccccc3n2)cc1 was read as NPYLR7 ag 3 and NPYLR7 ag max-min 1.
For CCc1cccc2c(C(CC(=O)N3CCN(c4ccccc4F)CC3)c3ccc(OC)c(OC)c3)c[nH]c12 (centres undefined) the results were NPYLR7 ag 18 and NPYLR7 ag max-min 19.
Screening N#CC1C(=N)C(C#N)(C#N)C(c2ccco2)C2CCCC=C12 (centres undefined) returned NPYLR7 ag 10 and NPYLR7 ag max-min 8.
For CCOC(=O)C1(Cc2ccccc2Cl)CCN(C(=O)CCc2ccccc2OC)CC1 the results were NPYLR7 ag -8 and NPYLR7 ag max-min -9.
`COC(=O)c1ccc(-c2nc(CN3CCN(C(=O)c4cccc(OC)c4)CC3)c(C)o2)cc1` gave NPYLR7 ag -1 and NPYLR7 ag max-min -2.
COc1ccccc1NC(=O)CN(c1cccc([N+](=O)[O-])c1)S(=O)(=O)c1ccccc1 was read as NPYLR7 ag 0 and NPYLR7 ag max-min 10.
Screening CC(C)CNC(=O)c1cccc(CSc2nc(-c3ccccc3)cc(N(C)Cc3ccccc3)n2)c1 returned NPYLR7 ag 21 and NPYLR7 ag max-min 29.
For CC1(C(=O)Nc2ccc3c(c2)OCCO3)CCN1Cc1ccsc1 (centres undefined) the results were NPYLR7 ag 1 and NPYLR7 ag max-min -2.
For Cc1cc(C(=O)NC(C)c2ccccc2)n2nc(-c3ccccc3)cc2n1 (centres undefined) the results were NPYLR7 ag 1 and NPYLR7 ag max-min 5.
CNC(=O)NC(=O)C(C)NC(c1ccccc1)C(C)C (centres undefined) was read as NPYLR7 ag 8 and NPYLR7 ag max-min 2.
`Cc1[nH]c(=O)nc(SCC(=O)NC2CCCC2)c1C#N` gave NPYLR7 ag -4 and NPYLR7 ag max-min -8.
`CC(=O)Nc1ccc(C(=O)N2CCn3cncc3C2)c(C)c1` gave NPYLR7 ag 2 and NPYLR7 ag max-min -6.
For Cc1ccc(OCc2cccc(C(=O)NC(C)C)c2)cn1 the results were NPYLR7 ag -3 and NPYLR7 ag max-min -6.
`N#Cc1ccc(NC(=O)N2CCc3ccccc3C2c2ccccc2Cl)cc1` (centres undefined) gave NPYLR7 ag 1 and NPYLR7 ag max-min 3.
For c1ccc(CNc2nc(NCc3ccco3)nc(N3CCOCC3)n2)cc1 the results were NPYLR7 ag -9 and NPYLR7 ag max-min -10.
Screening O=C(NCc1ccc2c(c1)OCO2)c1cc(-c2ccc(F)cc2)nc2cc(-c3ccccc3)nn12 returned NPYLR7 ag 10&20 and NPYLR7 ag max-min 10&24.
COCCn1cc(C(=O)NCCc2ccc(OC)cc2)c2nn(-c3ccccc3)c(=O)c-2c1 was read as NPYLR7 ag 4 and NPYLR7 ag max-min 3.
For COc1ccc(-c2nnc(SCC(=O)N3CCOCC3)o2)cc1 the results were NPYLR7 ag -2 and NPYLR7 ag max-min 21.
Screening CCc1nc2c(OCc3ccc(C#N)cc3)cccn2c1N(C)C(=O)C(C)C returned NPYLR7 ag 2 and NPYLR7 ag max-min 5.
Cc1cc(Cl)ccc1C(=O)C1CCCN(C(=O)C2CCCCC2)C1 (centres undefined) was read as NPYLR7 ag 3 and NPYLR7 ag max-min 2.
CCOC(=O)CCCN(CCCOC)CC(=O)N1CCSC1c1ccc(OC)cc1 (centres undefined) was read as NPYLR7 ag 2 and NPYLR7 ag max-min 6.
O=C(CSc1ncccn1)N1CCC2(CCc3ccccc32)C1 (centres undefined) was read as NPYLR7 ag -3 and NPYLR7 ag max-min 8.
CCC(NC(=O)Nc1cc(C(C)(C)C)nn1C(C)(C)C)c1cnn(CC)c1 (centres undefined) was read as NPYLR7 ag 1 and NPYLR7 ag max-min 0.
Screening C/C=C\COC1CCCN(C(=O)c2ccc(F)cc2)C1 (centres undefined) returned NPYLR7 ag 0 and NPYLR7 ag max-min 0.
Screening COc1cccc(-c2cnc(-c3cccc(CNC(=O)c4ccco4)c3)[nH]2)c1 returned NPYLR7 ag -1 and NPYLR7 ag max-min 10.
Cc1ccc(C)c(-n2nc(-c3ccccc3)cc2C(=O)O)c1 was read as NPYLR7 ag -16 and NPYLR7 ag max-min -7.
For O=C(c1ccc(Br)cc1)c1ccc(F)cc1F the results were NPYLR7 ag 3 and NPYLR7 ag max-min 0.
`COc1ccc(S(=O)(=O)NCc2ccc3c(c2)OCO3)c(C)c1C` gave NPYLR7 ag 2 and NPYLR7 ag max-min 5.
For CNC(=O)c1cc(S(=O)(=O)N2CCCc3cccc(Cl)c32)cn1C the results were NPYLR7 ag 0 and NPYLR7 ag max-min -4.
CC1(C)O[C@@H]2C[C@@](OCc3cccc(F)c3)(C(=O)NC3CC3)CC(OCc3c(F)cccc3F)[C@@H]2O1 (some centres undefined) was read as NPYLR7 ag 4 and NPYLR7 ag max-min 13.
`CN(C(=O)CSc1nc(N)c(NC(=O)c2ccccc2)c(=O)[nH]1)c1ccccc1` gave NPYLR7 ag -5 and NPYLR7 ag max-min -10.

Grouped by structure, the entries above with fluorine.
Screening O=C(Nc1cccc(C2SCC(=O)N2c2ccc(C(F)(F)F)cc2)c1)c1ccco1 (centres undefined) returned NPYLR7 ag 4 and NPYLR7 ag max-min 10.
`O=C(C1CCC1)N1CCOC(Cc2cccc(F)c2)C1` (centres undefined) gave NPYLR7 ag 8 and NPYLR7 ag max-min 6.
O=C(Nc1cccc(Cl)c1F)C1CCCN1S(=O)(=O)c1ccccc1C(F)(F)F (centres undefined) was read as NPYLR7 ag 0 and NPYLR7 ag max-min 0.
`CC(OCC1CCCCO1)C(=O)Nc1nc2cc(F)ccc2n1C` (centres undefined) gave NPYLR7 ag 7 and NPYLR7 ag max-min 5.
Screening Cc1cc(C(=O)N2CCC(C(=O)Nc3ccc(Oc4ccccc4F)cc3)CC2)c(C)o1 returned NPYLR7 ag 2 and NPYLR7 ag max-min 0.
For CC1Cc2cc(C(=O)N(C)Cc3ccccc3F)ccc2N1S(C)(=O)=O (centres undefined) the results were NPYLR7 ag -3 and NPYLR7 ag max-min -4.
For Cc1ccc2[nH]c(CNC(C)c3cnn(-c4cccc(F)c4)c3C)c(C)c2c1 (centres undefined) the results were NPYLR7 ag 9 and NPYLR7 ag max-min 8.
For CCc1cccc2c(C(CC(=O)N3CCN(c4ccccc4F)CC3)c3ccc(OC)c(OC)c3)c[nH]c12 (centres undefined) the results were NPYLR7 ag 18 and NPYLR7 ag max-min 19.
Screening O=C(NCc1ccc2c(c1)OCO2)c1cc(-c2ccc(F)cc2)nc2cc(-c3ccccc3)nn12 returned NPYLR7 ag 10&20 and NPYLR7 ag max-min 10&24.
Screening C/C=C\COC1CCCN(C(=O)c2ccc(F)cc2)C1 (centres undefined) returned NPYLR7 ag 0 and NPYLR7 ag max-min 0.
For O=C(c1ccc(Br)cc1)c1ccc(F)cc1F the results were NPYLR7 ag 3 and NPYLR7 ag max-min 0.
CC1(C)O[C@@H]2C[C@@](OCc3cccc(F)c3)(C(=O)NC3CC3)CC(OCc3c(F)cccc3F)[C@@H]2O1 (some centres undefined) was read as NPYLR7 ag 4 and NPYLR7 ag max-min 13.
